Screens as filed in PubChem BioAssay.
CSC inhib: cancer stem cell viability inhibitors, primary screen, luminescence; cancer stem cell-like cells viability; inhibition, % at 7.5 µM; actives 1.1% (n = 300,000);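 active = mean at 75% or more and at least half the replicates too; inconclusive = mean and replicates disagree; tested in HMLE shEcad cells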;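 also: 0% = median of negative and 100% = median of positive control wells; the first replicate is given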
eIF4H FP inh: human eIF4H binding inhibitors, primary screen, translation initiation inhibitor project, biochemical, uHTS, fluorescence polarization; inhibition, % at 35 µM; eIF4H fluorescence polarization binding assay; actives 0.94% (n = 290,000);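 active = 50% or more with normal probe brightness, or confirmed in later tests; inconclusive = above 50% with abnormal brightness, or retests that disagree; inactive = below 50% or failed in later tests; about a fifth of its hits are not listed in these tables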;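 also: calls also rest on retests at 20 µM and on dose response follow-up; 0% = protein and probe with vehicle and 100% = probe without protein; strong numbers were not always called active; many hits fall short of the cut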
HIV Env fusion: inhibitors of HIV-1 Env-driven cell-cell fusion, primary screen, HeLa-JRFL effector, CEM21 target cells, luciferase; inhibition, % at 12.3 µM; actives 1.1% (n = 360,000); AID 651610, 2012;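 active = mean replicate inhibition score of at least 50 and every replicate individually at or above 50; inconclusive = only one of the two criteria met; inactive = mean below 50 and not all replicates reaching 50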;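 also: 0% = plate neutral controls and 100% = maraviroc near 300 nM; one replicate is shown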
Rce1 inhib: yeast Rce1p protease inhibitors, primary screen, biochemical, fluorescence, cell-free homogeneous; CAAX prenyl protease 2 (Saccharomyces cerevisiae (strain ATCC 204508 / S288c)), Q03530; yeast membranes, quenched prenylated peptide cleavage fluorescence; calls only; actives 0.27% (n = 290,000);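 active = fall in fluorescence gain of 50% or more versus controls, with final raw signal at or below 3038400; inconclusive = same 50% fall but final raw signal above 3038400; inactive = fall in fluorescence gain under 50%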;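 also: plate controls were neutral control wells for no effect and wells lacking membranes for full effect; tested at 10 µM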
Target sequence (Q03530 whole entry, looked up): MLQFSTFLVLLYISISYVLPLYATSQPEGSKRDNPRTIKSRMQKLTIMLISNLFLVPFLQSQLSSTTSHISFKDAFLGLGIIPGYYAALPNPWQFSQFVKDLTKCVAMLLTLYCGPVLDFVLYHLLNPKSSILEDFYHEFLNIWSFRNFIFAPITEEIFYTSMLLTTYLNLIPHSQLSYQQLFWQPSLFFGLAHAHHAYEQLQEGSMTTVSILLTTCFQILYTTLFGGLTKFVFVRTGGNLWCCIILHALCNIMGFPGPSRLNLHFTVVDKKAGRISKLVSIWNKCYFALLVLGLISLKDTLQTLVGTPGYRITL
PABP polyA inh: PABP poly(A) RNA binding inhibitors, primary screen, biochemical, fluorescence polarization, uHTS; Polyadenylate-binding protein 1 (Homo sapiens), P11940; inhibition, % at 35 µM; actives 1% (n = 290,000); AID 2014, 2009;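 active = 50% or more with normal probe brightness, or confirmed in later tests; inconclusive = above 50% with abnormal brightness, or retests that disagree; inactive = below 50% or failed in later tests; about a fifth of its hits are not listed in these tables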;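 also: calls also rest on retests at 20 µM and on dose response follow-up; controls were probe without protein and protein plus probe with vehicle; some compounds called inactive have numbers as strong as hits; many hits fall short of the cut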
MT1-MMP act inh: blockers of MT1-MMP proenzyme processing, primary screen, HT1080 RFP-PRO-GFP cells, GFP/RFP fluorescence | Matrix metalloproteinase-14 (Homo sapiens), P50281 | GFP/RFP ratio fluorescence, overnight; percent of plate control window, DMSO zero | GFP/RFP ratio change, % at 20 µM | actives 0.061% (n = 360,000);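 active = GFP/RFP ratio change of at least 30% with cell ATP level not reduced by more than half and red fluorescence within 50% of control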; also: strong numbers were not always called active
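Assay system: HT1080 RFP-PRO-GFP cells. Benchmarks: DMSO vehicle wells and RFP-L50D-GFP reporter cell wells. Times: overnight cell settling, then overnight compound exposure, 37 °C, 5% CO2. Compound: 20 µM single dose, 1% DMSO. Read-out basis: GFP/RFP fluorescence ratio.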
Yeast UUG start: modulators of yeast start codon fidelity, primary screen, whole organism, S. cerevisiae, single point, plate reader. activity score, % at 18.7 µM. S. cerevisiae UUG-firefly luciferase reporter, luminescence/redox ratio. AID 602363, 2012. actives 0.13% (n = 350,000);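 active = replicate mean at a twofold rise or more, about +100% in these data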;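 also: firefly luciferase made from a UUG start codon reports start codon fidelity; reporter light over untreated wells divided by growth signal over untreated wells; some hits fall short of that in this replicate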
MT1-MMP act inh RFP: also measured in MT1-MMP act inh; calls as there; RFP signal change, %; measured here: RFP expression control read;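 0 = vehicle wells; hits needed this value within 50% of zero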
The depositor's hits bear a star; i = inactive; ? = inconclusive; nt = no result given; & = joins results of further samples; [ ] = dose if it differs, or a comment.

SMILES | HIV Env fusion | Yeast UUG start | PABP polyA inh | MT1-MMP act inh RFP | Rce1 inhib | eIF4H FP inh | MT1-MMP act inh | CSC inhib
COc1ccc(Br)cc1C(=O)O | -49 | -16 | 1 | 3 | nt | -6 | 4 | -8
Cc1cc(-n2c(SCC(=O)NCc3cccs3)nc3n[nH]c(C)c3c2=N)ccc1Cl | -24 | nt | 10 | 0 | i | -8 | 18 | -6
CCCCCCCCNCCS(=O)(=O)NC1CCCCC1 | -3 | -7 | nt | 0 | nt | nt | -2 | nt
COc1ccc(CNC(=O)C2CCN(S(=O)(=O)c3ccc4c(c3)NC(=O)C(C)S4)CC2)cc1 (stereo not drawn) | -6 | 18 | nt | -10 | i | nt | 1 | -16
O=C/C(=C\Nc1ccccn1)c1nc2ccccc2o1 | -65 | nt | 6 | 0 | i | 2 | -132 | 0
CCOC(=O)CNc1cccc(C(F)(F)F)c1 | 7 | nt | 8 | 7 | i | 0 | -2 | -11
COc1ccccc1-c1cc(N)n[nH]1 | nt | -8 | -5 | 0 | i | -3 | -1 | nt
COc1ccc(/C=N/c2oc(-c3ccccc3)cc2C#N)cc1OC | nt | -9 | 8 | 7 | i | 7 | -1 | -7
O=C(N/C(=C/c1ccc(Br)cc1)C(=O)N1CCOCC1)c1ccc(Br)o1 | -4 | 6 | -8 | 1 | i | 1 | -1 | -22
Cc1nc(/N=C(\N)NC(=O)N2c3ccccc3Sc3ccccc32)nc2ccccc12 | 9 | -9 | -6 | -6 | i | 4 | -4 | nt
CSc1ccccc1NC(=O)C1=CC(c2ccc(C)cc2)=NS(=O)(=O)N1C | -189 | -1 | 11 | 3 | i | 1 | -3 | 4
O=C(Nc1ccc(Cl)cc1)Nc1ccccn1 | -92 | -2 | -3 | -7 | i | -14 | -7 | -2
Cc1ccc(NC2c3ncccc3C(=O)N2Cc2cccs2)cc1C (stereo not drawn) | 22 | -22 | -13 | 6 | i | -1 | 2 | 0
Cc1ccccc1NC(=S)NCc1ccc(F)cc1 | -2 | -6 | -5 | 2 | i | -2 | 1 | -10
COc1ccccc1OCC(=O)NCC(C)NC(=O)COc1ccccc1OC (stereo not drawn) | 5 | -7 | nt | -1 | i | nt | 2 | -6
Cc1ccc(C(=O)Nc2nn(C)c3cccc(F)c23)cc1 | -7 | -26 | -10 | 0 | i | -2 | 1 | 29
CCCCN(C(=O)c1ccc(N2C(=O)c3ccccc3C2=O)cc1)c1c(N)n(CC(C)C)c(=O)[nH]c1=O | -66 | -1 | nt | 2 | nt | nt | -2 | nt
COc1ccc(S(=O)(=O)Cc2ccc(C(=O)NC3CCC(C)CC3)o2)cc1 (stereo not drawn) | 8 | 11 | 5 | -4 | i | -8 | 2 | -6
COc1ccc(-c2cc3c(c4c2ccn4C)C2CCC3C2)cn1 (stereo not drawn) | 36 | -10 | nt | 2 | nt | nt | 4 | nt
C=CCSc1nnc(-c2ccccc2NC(C)=O)c(=O)[nH]1 | -18 | -7 | 10 | 2 | i | 8 | -1 | -2
CCOc1cccc(-c2csc(C3COc4ccccc4O3)n2)c1 (stereo not drawn) | -8 | nt | -16 | 2 | i | -2 | 2 | -6
COc1cccc(CN(C)C(=O)CCC(=O)c2cc(Br)ccc2OC)c1 | 10 | 2 | nt | 0 | nt | nt | -1 | 5
CC(=O)Nc1ccc(S(=O)(=O)Nc2ccccn2)cc1 | 9 | nt | 1 | 0 | i | 13 | 3 | -12
Cc1ccc(S(=O)(=O)N2CCN(C(=O)CSc3nnnn3C)C2)cc1 | nt | -19 | -16 | 2 | i | -2 | 2 | -15
COc1ccccc1CCNC(=O)C(=O)NCC1OCCN1S(=O)(=O)c1ccc2c(c1)OCCO2 (stereo not drawn) | 2 | 14 | 14 | -5 | i | -1 | 4 | 9
Cn1nc(-c2ccc(Cl)cc2)c2cc(C(=O)N3CCN(c4ccccc4)CC3)sc21 | 0 | 1 | -7 | -9 | i | -1 | -8 | -2
COc1ccccc1C(c1nnnn1CC1CCCO1)N1CCC(C(N)=O)CC1 (stereo not drawn) | -18 | -8 | 0 | 6 | i | 2 | 0 | -12
CC(=O)Nc1ccc(S(=O)(=O)NCC(=O)OCC(=O)c2ccc[nH]2)cc1 | nt | -21 | nt | 2 | nt | nt | 2 | -15
CCN(CC(=O)Nc1c(F)cccc1F)C(=O)CCCOc1ccc(OC)cc1 | 3 | -9 | nt | -3 | i | nt | 4 | -5
COc1ccc(NC(=O)N(C)C[C@@H]2OCc3cnnn3CCCC(=O)N([C@@H](C)CO)C[C@H]2C)c(OC)c1 | 5 | -1&1 | nt | 6 | nt | nt | 1 | nt
Cc1ccc(NS(=O)(=O)c2ccc(CCC(=O)NCc3ccccn3)cc2)cc1 | 15 | -3 | -4 | -3 | i | -9 | -6 | -12
COc1ccc(-c2csc3nc(-c4ccccc4)oc(=O)c23)cc1OC | -6 | -6 | -6 | -4 | i | 13 | 2 | 34
COc1ccc(/C=C(\C#N)C(=O)NCc2cccs2)cc1OC | -2 | -4 | -2 | -2 | i | 0 | -6 | -7
Cc1ccc(S(=O)(=O)CCC(=O)OCC(=O)N(C)c2ccccc2)cc1 | -2 | 7 | nt | 4 | nt | nt | 4 | nt
O=C(NCCCN1CCOCC1)c1ccc(Sc2ccccc2Cl)c([N+](=O)[O-])c1 | 1 | nt | -16 | -6 | i | 5 | -1 | 52
CCc1nnc(NC(=O)CN2C(=O)/C(=C/c3ccc(OC)c(OC)c3)SC2=S)s1 | nt | nt | 7 | nt | i | 10 | nt | 9
Cc1cc(C)cc(Nc2nc3c(S(=O)(=O)c4ccccc4)nnn3c3ccccc23)c1 | -19 | nt | -7 | 3 | nt | -3 | 0 | -2
O=C(CSC(=S)N1CCCC1)Nc1cc2c(cc1Br)OCCO2 | nt | -12 | -14 | -1 | i | -14 | -3 | -19
O=C(COC(=O)CNS(=O)(=O)c1c(F)cccc1F)NC(=O)NC1CCCCC1 | -29 | -1 | nt | 5 | nt | nt | 1 | -5
Cc1cccc(C)c1N1CCN(S(=O)(=O)N(C)C)CC1 | 21 | nt | -2 | -1 | i | 2 | -5 | -12
NC(=O)C1CC(=O)N(c2ccc(OCC(=O)Nc3ccc(F)cc3)cc2)C1 (stereo not drawn) | nt | -18 | nt | 1 | nt | nt | -3 | -3
Cc1cccc(/C=N\NC(=O)c2csnn2)c1 | nt | -42 | 3 | 14 | i | -5 | 5 | -5
FC(F)(F)c1nc(NCc2ccccc2)c2nnn(Cc3ccccc3)c2n1 | -22 | -3 | -2 | -3 | i | 6 | -1 | 13
CCCSc1nnc(-c2c[nH]c3ccccc23)n1CC | -8 | -6 | 2 | -6 | i | -4 | 2 | nt
O=C(Nc1ccc(-n2cccn2)cc1)C1CCN(Cc2ccsc2)CC1 | 1 | -19 | -5 | 0 | i | -4 | -3 | -3
COc1ccc(/C=N/N2C(=O)CSC2=S)cc1Br | -40 | -18 | nt | 14 | i | nt | -8 | 1
COc1ccccc1NC(=O)CN1CCN(c2ccccn2)CC1 | nt | nt | 1 | 3 | i | 0 | 9 | -14
COc1ccc(-c2cnc3cccnn23)cn1 | -8 | -21 | nt | 3 | nt | nt | 1 | nt
CC(C)(C)OC(=O)N1CCC(CNC(=O)c2cccs2)CC1 | 13 | -6 | 7 | -2 | i | 0 | -1 | -6
CCOC(=O)N1CCN(C(=O)c2nc3ccccc3s2)CC1 | nt | -4 | -4 | 6 | i | -4 | 7 | nt
COc1cccc(C(=O)NNC(=O)c2ccc3ccccc3c2O)c1 | 8 | nt | nt | -11 | i | nt | 6 | 9
O=C(Cn1ccccc1=O)NCc1ccc(F)cc1 | -17 | -6 | -2 | 3 | i | -10 | -3 | -14
C#CC[N+]1(CC#Cc2ccc(C#CC[N+]3(CC#C)CCOCC3)cc2)CCOCC1 | nt | 17 | 12 | -12 | i | 30 | -6 | -13
O=C(CSCc1c(Cl)cccc1Cl)Nc1ccccc1-c1ccccc1 | nt | -5 | -2 | -7 | i | 3 | -9 | 49
Cc1cccc(C(=O)Nc2nc3ccc(S(C)(=O)=O)cc3s2)c1 | -24 | -1 | 4 | -1 | i | -8 | -1 | -5
Cc1cc(C)c(O)c(CN(C)Cc2cc(Cl)cc(Cl)c2O)c1 | 19 | -17 | nt | -3 | nt | nt | -4 | nt
Cc1ccc(-c2nnc(N(C)C(=O)C3CCCO3)s2)cn1 (stereo not drawn) | nt | -7 | 12 | 2 | i | -4 | 1 | -12
CC(=O)c1ccc(NC(=O)CSc2nnc(-c3ccncc3)o2)cc1 | -5 | -8 | nt | -1 | i | nt | -1 | 3
CCn1c(C)cc(=O)cc1-c1ccc(Cl)cc1 | 8 | -17 | -3 | 5 | i | -5 | 3 | 7
CC(C)(C)[C@H]1C=C(C(=O)NCc2ccccc2)O[C@@H](OCc2ccc(CO)cc2)C1 | 23[16.7 µM] | 16&-12 | 7 | -4 | i | 1 | 2 | 5

Continuation:
SMILES | HIV Env fusion | Yeast UUG start | PABP polyA inh | MT1-MMP act inh RFP | Rce1 inhib | eIF4H FP inh | MT1-MMP act inh | CSC inhib
COc1cc(OC)cc(-c2noc([C@H]3C[C@H](O)[C@@H](CO)O3)n2)c1 | -2 | -19 | nt | 1 | nt | nt | 2 | nt
Cc1ccc(NNC(=O)CCc2ccccc2)c(C)c1 | 14 | 31 | 5 | -1 | i | -6 | 0 | -13
CCc1ccc(NC(=O)Nc2cccs2)cc1 | nt | -11 | 17 | nt | i | 10 | nt | -6
COc1ccc(CCNC(=O)COC(=O)c2ccc(C)s2)cc1 | nt | 2 | nt | 1 | nt | nt | 2 | -5
O=C(CCC1CCCN(C(=O)CC2=CCCCC2)C1)N1CCN(c2ccccn2)CC1 (stereo not drawn) | 42 | 14 | 1 | -9 | i | -4 | -3 | 1
CC(C)(C)N(Cc1ccccc1)C(=O)COC(=O)c1ccccc1SCC(=O)N1CCCC1 | i | nt | nt | -4 | i | nt | -1 | -2
Cc1c(C(=O)N/N=C/c2ccc(N3CCOCC3)cc2)nc2ccccn12 | 6 | nt | 4 | -2 | nt | -8 | 0 | -6
O=C(CN(Cc1ccccc1Cl)C(=O)c1csnn1)NCc1ccc2c(c1)OCO2 | 3 | -11 | -7 | 3 | i | -6 | 1 | nt
Cc1cccc(N2CCCn3c2nc2c3c(=O)n(CC(=O)OCc3ccccc3)c(=O)n2C)c1 | -22 | nt | 4 | nt | nt | 1 | nt | nt
Cc1nnc(NC(=O)c2ccc(S(=O)(=O)N3CCCCC3)cc2)s1 | 2 | -25 | nt | 2 | nt | nt | 3 | -18
CC12CCCCN1CCCc1c2[nH]c2ccccc12 (stereo not drawn) | nt | 4 | ? | 2 | i | ? | -13 | 1
Cc1nn2cc(-c3ccccc3)nc2s1 | nt | nt | -7 | 3 | nt | -5 | 3 | 4
COc1cccc(C(=O)Oc2cc(C)[nH]c(=O)c2[N+](=O)[O-])c1OC | ? | -36 | 4 | 7 | i | -8 | 2 | -9
CC12CCC(C(=O)O)(c3nc(C#N)c(C#N)nc31)C2(C)C (stereo not drawn) | -84 | 16 | 0 | 5 | i | -3 | 1 | 1
Cc1ccc2c(CC(=O)Nc3nc(C)cs3)coc2c1 | -58 | -22 | 13 | 0 | i | 9 | 1 | -5
